Source: PubChem BioAssay
Menin MLL FP FL: displaces fluorescein MLL peptide from human menin; Fluorescence polarization, fluorescein-MLL peptide displacement from menin; FP activity change, % at 61.4 µM; 290,000 tested, under 10 active; AID 1766; inconclusive = falling polarisation curve, or a change in total fluorescence; inactive = total fluorescence flat and polarisation flat or rising; no compound was filed as active; the % refers to the polarisation; negative = inhibition;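 also: % of control where 0% means no effect; inhibitors lower the polarisation; unlabelled MLL peptide was the positive control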
TRPML1 inh: blocks the human TRPML1 channel; TRPML1-inducible cells, Ca2+ dye fluorescence, FDSS; hits give low values; inhibition of EC80 agonist-evoked calcium signal; activity change, negative = inhibition, % (no concentration beside the values); 0.02% of 390,000 active; AID 624415; in the data active means activity change below about -50%; inconclusive means about -30% to -50%; inactive means above about -30%;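 also: stimulus is agonist 54-4 at its EC80 concentration; % is scaled to controls: 0 for no effect and ±100 for the full control effect; compound concentration not given in the record; the text of the record puts the active cut at -80%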
Target sequence (Q9GZU1 whole entry, looked up): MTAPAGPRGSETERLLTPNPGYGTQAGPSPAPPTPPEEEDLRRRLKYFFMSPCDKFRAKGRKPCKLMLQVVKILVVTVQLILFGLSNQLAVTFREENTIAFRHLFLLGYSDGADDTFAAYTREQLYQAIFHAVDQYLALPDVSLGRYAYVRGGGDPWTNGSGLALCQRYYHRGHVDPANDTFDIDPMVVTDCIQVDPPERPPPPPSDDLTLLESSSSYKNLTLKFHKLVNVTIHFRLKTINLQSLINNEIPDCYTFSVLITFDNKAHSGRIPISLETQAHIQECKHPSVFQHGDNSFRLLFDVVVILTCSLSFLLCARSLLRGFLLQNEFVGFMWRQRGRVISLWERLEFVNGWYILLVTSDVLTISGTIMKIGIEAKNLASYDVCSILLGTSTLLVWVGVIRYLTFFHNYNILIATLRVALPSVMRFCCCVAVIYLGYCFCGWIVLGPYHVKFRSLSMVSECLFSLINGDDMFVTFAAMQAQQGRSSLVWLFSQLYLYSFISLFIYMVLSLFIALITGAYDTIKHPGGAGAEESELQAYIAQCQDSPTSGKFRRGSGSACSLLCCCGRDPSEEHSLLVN
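TRPML1-DL cells, Tet-induced overnight (~16 h, 37 °C) at 1,500 cells/well, were loaded with Ca8 no-wash dye plus quencher for 45-90 min at room temperature. Compounds were pinned during FDSS kinetic reading; agonist 54-4 at EC80 (4 uM final) then added.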
gsp ag: gsp mutant agonism; 0.13% of 340,000 active; gsp mutant cells, cAMP HTRF, 30 min; control for the full effect not named in the record; Potency, µM (series often up to 76.9 µM), for inactives: at the highest dose activation (cAMP increase), actives largely listed as activators; active = well fitted activation curve with a large enough effect; inconclusive = small, poorly fitted or top-dose-only effect, or another doubt; inactive = no such curve, though single readings can be large or run the other way; cell line not stated here;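 also: phosphodiesterase inhibitor Ro 20-1724 added with compounds to block cAMP breakdown; potency is read from the fitted curve at half-maximal effect; nearly all actives have a fitted effect of over 60% in size; about a fifth of the inactives were tested at one dose only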
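Cells in DMEM/10% FBS with G418 were pretreated with compounds in DMSO plus […] (300 uM stock) for 30 min at 37C. cAMP was measured by HTRF (cAMP-d2 plus anti-cAMP antibody-K) after 30 min at room temperature.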
TRPML1 agonist: activates the human TRPML1 channel | 0.12% of 410,000 active | activation, % (no concentration beside the values) | TRPML1-expressing cells, Ca2+ dye fluorescence, FDSS; host cell line not named in the record; reference of the full effect not given here; in the data active = activation above about 50%; inconclusive = about 30% to 50%; inactive = below about 30%; also: 0% is about no effect; the text of the record puts the active cut at 80%
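In this qHTS format, compounds were pin-transferred onto Ca8-dye-loaded TRPML1-DL cells induced with Tet overnight, and intracellular Ca2+ fluorescence was recorded kinetically for 110 s after a 10 s baseline. A subsequent 4uM final 54-4 (EC80) addition followed by a second 110 s read served as the antagonist phase.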
gsp antagonist: antagonists of gsp mutant (McCune-Albright syndrome) | 0.4% of 340,000 active | gsp-mutant cells, cAMP HTRF, 30 min; control for the full effect not named in the record | AID 624288 | Potency, µM (top dose mostly 76.9 µM), for inactives: top-dose activity change, negative = inhibition, hits mostly inhibitors; active = falling curve of any shape with a large fitted effect; inconclusive = falling curve, mostly with a smaller effect; inactive = flat or rising curve; cell line not stated here;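 also: intracellular cAMP measured with PDE inhibitor Ro 20-1724 present during compound exposure; potency is read from the fitted curve at half-maximal effect; % is scaled to controls: 0 for no effect and ±100 for the full control effect; nearly all actives have a fitted effect of over 65% in size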
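Cells, 2000/well, grown 16–24 h in DMEM 10% FBS with 0.5 mg/ml G418, then compounds plus […] (300 uM addition stock), 30 min at 37C. cAMP read by HTRF (cAMP-d2 and anti-cAMP antibody-K in lysis buffer) after 30 min RT.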
ClpP mod: qHTS Assay for Activators of ClpP | 1.9% of 340,000 active | ATP-dependent Clp protease proteolytic subunit (Bacillus subtilis (strain 168)), P80244 | Potency, µM (series often up to 57.5 µM), without a hit: at the highest dose activity change, negative = active | purified B. subtilis ClpP, FRET peptide cleavage, 20 min; active = well fitted falling curve with a large enough effect; inconclusive = small, poorly fitted or top-dose-only effect; inactive = no such curve, though single readings can be large or run the other way; also: potency is read from the fitted curve at half-maximal effect; the source files actives as falling curves though it sought activators and does not explain the sign; nearly all actives have a fitted effect of over 65% in size; many hits overshoot -100%
Target sequence (P80244 whole entry, looked up): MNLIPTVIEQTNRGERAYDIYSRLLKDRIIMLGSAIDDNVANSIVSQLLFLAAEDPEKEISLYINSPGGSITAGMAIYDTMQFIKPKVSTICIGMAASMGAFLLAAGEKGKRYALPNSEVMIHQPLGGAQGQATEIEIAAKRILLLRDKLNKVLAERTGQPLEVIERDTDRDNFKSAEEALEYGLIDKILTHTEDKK
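Buffer: 100 mM Tris/HCl pH8, 100 mM KCl, 0.05% low protease BSA, 2.5% glycerol, 0.01% Tween-20. ClpP 10 microg/mL final; 20 min RT; delta FRET normalized to ADEP and DMSO controls.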
* marks the source's active call; other numbers are inactive results; ? = inconclusive; · = no result given; [ ] = remark or other dose.

Order of results – Menin MLL FP FL	TRPML1 inh	gsp ag	TRPML1 agonist	gsp antagonist	ClpP mod
> COc1ccc(S(=O)(=O)N2CCN(c3ccc(F)cc3)CC2)cc1-c1noc(C)n1
→ ·	-22	·	2.4	·	-0.6%
> O=c1c(-c2nnc(SCc3ccc(Cl)c(Cl)c3)o2)cccn1Cc1ccccc1
→ 0.7	-9	?	-0.5	-8%	?
> Cn1c(SCC#N)nnc1-c1cnccn1
→ 4.0	0	?	0.1	-9%	-2.8%
> O=C(O)CCCC(=O)N1CCC(C(O)(c2ccccc2)c2ccccc2)CC1
→ 2.9	12	6%[15.4 µM]	-0.7	-5%	-0.7%
> Cc1ccccc1Cn1c(=O)n(CCc2ccccc2)c(=O)c2c(C)c(C)sc21
→ ·	9	·	2.7	·	1.1%
> FC(F)(F)c1cc(-c2ccco2)nc(NCc2cccs2)n1
→ 11	-19	?	0.7	-19%	-6.5%
> COc1ccc(N(C)S(=O)(=O)c2cccc(C(=O)NCC3CCCO3)c2)cc1 (stereo unspecified)
→ 1.2	-4	7%	1.2	7%	-1.5%
> COc1ccc(NS(=O)(=O)c2ccc(C(=O)N3CCC(C)CC3)cc2)cc1
→ ·	8	?	11	-8%	·
> Cc1nn(Cc2noc(C(=O)NCc3cccc(F)c3)n2)c(C)c1Br
→ ·	-2	·	2.0	·	-0.6%
> CCOc1ccccc1NC(=O)Cn1nnc(C(=O)NCCc2ccc(OCC)c(OCC)c2)c1N
→ -2.7	13	?	0.5	1%	-0.6%
> CNC(=O)COC(=O)c1cccc(S(=O)(=O)N2CCN(c3ccc(F)cc3)CC2)c1
→ 2.0	34	-32%[inhibitor]	0.2	11%	-2.1%
> Cc1nc(C(=O)O)nn1-c1cc(Cl)ccc1Cl
→ -3.3	-2	-8%	-0.4	6%	·
> Cc1ccc(S(=O)(=O)N2CC(C)N(C(=O)N3CCOCC3)C2)cc1 (stereo unspecified)
→ -0.3	12	-9%[15.4 µM]	0.7	-12%	·
> O=C(NCCCO)c1ccc(CSc2nc3ccccc3c(=O)[nH]2)cc1
→ -2.9	0	-10%[15.4 µM]	0.0	-1%	·
> Cc1cccc(CC2S/C(=N/N=C/c3ccco3)N(c3ccccc3)C2=O)c1 (stereo unspecified)
→ 6.4	9	14%	3.0	-6%	0.5%
> CCCCC(Sc1nc(C)c(Cc2ccccc2)c(=O)[nH]1)C(=O)O (stereo unspecified)
→ 0.0	-8	-1%	0.0	4%	0.4%
> COC(=O)C1=C(C)Nc2nnnn2C1c1cccnc1 (stereo unspecified)
→ 6.1	2	-3%	0.0	2%	14%
> CN(C(=O)CSc1nnc(-c2ccc(F)cc2)c2ccccc12)C1CCS(=O)(=O)C1 (stereo unspecified)
→ 4.4	-10	-20%[15.4 µM]	-0.3	4%	·
> CCc1cc(=O)oc2c(C)c(OCC(=O)NCC3CCC(C(=O)O)CC3)ccc12 (stereo unspecified)
→ 4.3	·	·	·	-3%	4.5%
> C/C(=C/C=N/Nc1nc(N2CCCCC2)nc(N2CCCCC2)n1)c1ccccc1
→ 2.9	-9	0%	0.0	?	0.3%
> CCOC(=O)c1sc2ccccc2c1S(=O)(=O)N1CCN(c2cccc(C)c2C)CC1
→ ·	3	·	0.8	·	-1.1%
> O=C(NCCc1ccccc1)C1CCN(S(=O)(=O)c2ccc(Br)s2)CC1
→ 4.8	3	3%	-0.3	3%	-6.1%
> CCc1ccc(NC(=O)C(=O)NCCc2sc(-c3ccc(C)cc3)nc2C)cc1
→ ·	1	·	1.6	·	-1.8%
> CCOc1ccc2[nH]c(C)c(CN3CCN(C)CC3)c(=O)c2c1
→ -6.0	-2	-25%	-0.5	1%	-3.9%
> COc1cc(S(=O)(=O)N2CCN(C(=O)c3ccco3)CC2)c(OC)cc1C
→ -12	9	?	0.9	2%	1.9%
> CCOC(=O)c1c(C)[nH]c(C(=O)OCC(=O)Nc2sc(C(=O)N(C)C)c(C)c2C(=O)OCC)c1C
→ ·	?	3%[15.4 µM]	1.8	?	0.2%
> CCOc1ccc(NC(=O)CC2C(=O)N(c3ccc(F)cc3)C(=O)N2Cc2ccc(OC)c(OC)c2)cc1 (stereo unspecified)
→ ·	-18	·	0.4	·	0.7%
> O=C1CCC(C(=O)OCc2cc(Cl)ccc2OC(F)F)N1 (stereo unspecified)
→ 2.6	15	-6%	6.7	-3%	2.2%
> COc1cccc(CNCc2c(C(=O)O)n(Cc3ccc(C)cc3)c3cc(C)ccc23)c1OC
→ ·	36	·	1.3	·	-17%
> COc1ccccc1NC(=O)c1ccc(NC(=O)CNC(=O)c2ccc(OC)c(OC)c2)cc1
→ -9.0	11	9%	2.5	-7%	·
> COc1ccccc1NC(=O)c1ccc2nc(C)sc2c1
→ 0.0	3	-4%	-0.8	0%	·
> CCC(CC)C(=O)Nc1cccc(C(=O)NCCc2ccccc2)c1
→ -0.2	9	20%	4.9	-4%	-2.5%
> CCOC(=O)Cc1csc(NC(=O)c2ccncc2)n1
→ 2.6	5	1%	-0.1	7%	1.6%
> O=C1/C(=C/c2cccc(F)c2)SC(=S)N1NS(=O)(=O)c1ccccc1
→ -14	6	1%[15.4 µM]	-0.3	-20%	·
> CSc1nnc(-c2ccc(S(=O)(=O)N3CCCCC3)cc2)o1
→ -0.2	-9	1%[15.4 µM]	0.7	12%	·
> Cc1cc(NC(=O)c2ccc(Cl)cc2)c(C(C)C)cc1O
→ 0.3	-1	-25%	-0.3	6%	0.3%
> CCCCSc1[nH]c(=O)c(C(=O)OCC)cc1C#N
→ -0.9	-12	8%	-0.2	-11%	32µM*
> FC(F)(F)c1ccc2c(c1)C1C=CCC1C(c1ccncc1)N2 (stereo unspecified)
→ ?	11	17%[15.4 µM]	0.9	2%	·
> COc1ccc(N2CCN(C(=O)c3ccc(OCC4CCCO4)cc3)CC2)cc1 (stereo unspecified)
→ 0.0	-3	0%	-0.5	-2%	-0.9%
> N#Cc1ccc(NC(=O)C2CC(c3ccc(F)cc3)=NO2)cc1 (stereo unspecified)
→ -0.6	2	-12%	0.1	10%	1.4%
> O=C1CCCc2nc(N3CCCCC3)sc21
→ 0.3	33	-7%	0.7	-21%[15.4 µM]	-2.9%
> O=C(Oc1ccc(Br)cc1)c1n[nH]c(=O)c2ccccc12
→ 0.0	-10	24%	0.6	7%	·
> CCOC(=O)c1sc2nc(-c3ccccc3)ccc2c1N
→ 1.8	-3	?	0.1	20%	-7.7%
> CSCC[C@@H](C(=O)Nc1ccc2c(c1)OCCO2)N1Cc2ccccc2C1=O
→ -0.1	29	-56%[inhibitor]	-0.5	0%	-4.2%
> CSC1=NC(NCCCO)c2c(sc3c2CC(C)(C)OC3)N1 (stereo unspecified)
→ 3.8	8	11%	0.4	0%	11µM*
> COc1cc(OC)cc(C(=O)NC2CCN(Cc3nnnn3Cc3ccc(F)cc3)CC2)c1
→ 1.8	24	?	3.2	-4%	-5.3%
> CN(C)S(=O)(=O)Nc1ccc(-c2cn3ccsc3n2)cc1
→ ·	-4	·	0.5	·	-3.4%
> Cn1cnnc1SCC(=O)N(Cc1ccc2c(c1)OCO2)C1(C(=O)NC2CCCCC2)CCCC1
→ 3.1	13	-43%[inhibitor]	2.5	4%	-0.7%
> O=C(c1ccccc1Cl)N1CCCCC1CCN1CCOCC1 (stereo unspecified)
→ ·	5	·	-0.6	·	1.4%
> COc1ccc(Cl)cc1NC(=O)COC(=O)c1cc(C)oc1C
→ ·	40	25%	0.1	-32%	4.8%

Next section:
Order of results – Menin MLL FP FL	TRPML1 inh	gsp ag	TRPML1 agonist	gsp antagonist	ClpP mod
> CCC1CCCCN1C(=O)COC(=O)c1cc(Br)ccc1Cl (stereo unspecified)
→ -3.9	26	?	1.4	3%	·
> CCCC12CN3CC(C)(CN(C1)C3c1ccccc1Cl)C2=O (stereo unspecified)
→ ·	16	·	-0.5	·	-1.5%
> COC(=O)CNC(=O)CSc1nc2c(sc(=S)n2-c2ccccc2)c(=O)[nH]1
→ -3.0	37	-7%	-0.1	4%	·
> O=S(=O)(Nc1cc(F)ccc1F)c1cccc2nsnc12
→ 1.2	14	20%	-0.1	-14%	0.8%
> Cc1cccc(NC(=O)CNC(=O)CSc2ncccn2)c1C
→ ·	6	-39%[inhibitor]	0.8	-6%	0.6%
> CCOc1cc(S(=O)(=O)NC2CCCCCC2)ccc1F
→ 1.3	-5	?	6.4	-3%	-2.2%
> Cc1cc(Br)ccc1NC(=O)CCNS(=O)(=O)c1cccc2nonc12
→ ·	2	·	0.4	·	1.5%
> O=C1c2ccccc2N2C(=O)c3ccccc3[C@H]2N1c1ccccc1
→ -0.5	5	-3%	0.8	-19%	-15%
> Cc1ccc(OCC(=O)N/N=C/c2cc([N+](=O)[O-])ccc2N2CCCCC2)cc1
→ 4.5	25	-11%	0.0	-1%	0.8%
> CC(C)(C)c1nnc(NC(=O)c2ccc(Cl)nc2)s1
→ 0.0	-9	18%	-0.9	3%	-0.4%
> COc1ccc(NS(=O)(=O)c2cccc(C(=O)NCC(c3ccc(F)cc3)N3CCOCC3)c2)cc1 (stereo unspecified)
→ 1.7	18	-3%	0.2	-26%	1.6%
> CC1CCC(NC(=O)CCNS(=O)(=O)c2ccc3c(c2)CCC(=O)N3)CC1 (stereo unspecified)
→ ·	27	-50%[inhibitor]	-0.1	18%	0.3%
> O=C(Nc1ccccc1)c1ncoc1-c1ccc(Cl)cc1
→ 4.1	-6	-2%	-0.7	0%	3.5%
> Cc1ccc2ccc3cc(C(=O)N4CCN(c5ccccc5F)CC4)nc3c2[nH]1
→ ·	33	·	1.8	·	2.7%
> CC1=NOC(=O)/C1=C\c1ccc(-c2cc(Cl)ccc2Cl)o1
→ 7.8	15	?	0.9	-11%	-2.1%
> O=C(Cn1ncc2c1-c1ccccc1OC2)N1CCc2ccccc21
→ -0.5	-7	-26%	-0.1	6%	-11%
> O=C(NCc1ccc(F)cc1F)Nc1cnccc1C(F)(F)F
→ -5.5	8	2%	3.7	-5%	-1.8%

3 compounds out of the list above, ordered by their value in Menin MLL FP FL, descending:
structure,Menin MLL FP FL,TRPML1 inh,gsp ag,gsp antagonist
CC1=NOC(=O)/C1=C\c1ccc(-c2cc(Cl)ccc2Cl)o1,7.8,15,?,-11%
O=C(Nc1ccccc1)c1ncoc1-c1ccc(Cl)cc1,4.1,-6,-2%,0%
COc1ccc(NS(=O)(=O)c2cccc(C(=O)NCC(c3ccc(F)cc3)N3CCOCC3)c2)cc1 (stereo unspecified),1.7,18,-3%,-26%
